TAR Tat displ = HIV-1 TAR-Tat binding disruption | HIV-1 TAR RNA, Tat peptide displacement FRET; hits give high values | AID 1259389 | z-score (no concentration beside the values) | 100,000 tested, 0.6% active;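 also: score is relative to mean and SD of negative controls; some compounds called inactive have numbers as strong as hits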
CDC25B CDK2 inh = human CDC25B-CDK2/CyclinA binding inhibition | P30305+P24941 | HTRF CDC25B-CDK2/CyclinA binding, anti-His/anti-Flag; hits give high values | z-score (no concentration beside the values) | 94,000 tested, 0.72% active | AID 1259370;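 also: score is relative to mean and SD of negative controls; strong numbers were not always called active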
* hit, by the source's call; · = no result given.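 The calls were made as follows: active = z-score from 3 up in half or more of its runs; inactive = the rest.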

Start of the listing, in advance (two entries):
structure	TAR Tat displ	CDC25B CDK2 inh
O=C(Cn1nc(-c2ccco2)ccc1=O)Nc1cccc(Br)c1	0.27	·
CCN(c1ccccc1)S(=O)(=O)c1cc(-c2ccc(=O)[nH]n2)cc(C)c1C	2.06	·

The listing (from the top)
structure	TAR Tat displ	CDC25B CDK2 inh
O=C(Cn1nc(-c2ccco2)ccc1=O)Nc1cccc(Br)c1	0.27	·
CCN(c1ccccc1)S(=O)(=O)c1cc(-c2ccc(=O)[nH]n2)cc(C)c1C	2.06	·
CN(C1CCCCC1)S(=O)(=O)N1CCCC(C(=O)N2CCN(c3ccccc3F)CC2)C1 (configuration not stated)	1.56	·
Cc1nn(C)c(C)c1CNC(=O)C1CCN(c2nnc(N3CCCC3=O)s2)CC1	1.66	·
COCCNc1nc2c(-c3ccc(Cl)cc3)nnn2c2ccccc12	0.89	0.45
CCCc1n(CC(O)COc2ccccc2C)c2ccccc2[n+]1C (configuration not stated)	2.73	-0.6
O=C(c1cnn2ccccc12)N1CCc2ccccc2C1	·	-1.38
Cc1ccc2c(c1)NCC(C1CCCCC1)O2 (configuration not stated)	0.5	0.63
O=C(Nc1cccnc1)c1nc2ncccn2n1	-0.67	-0.84
CC(=O)C(C(C)=O)C1=C([N+](=O)[O-])C(=O)C(=O)c2ccccc21	·	3.55*
O=C(NCCc1ccccc1)c1cc(=O)[nH]c2ccc(S(=O)(=O)N3CCCCC3)cc12	·	-0.22
COc1cccc(-c2nn3c(-c4ccccc4)nnc3s2)c1	-0.36	-0.83

(more compounds)
structure	TAR Tat displ	CDC25B CDK2 inh
O=C(O)c1ccc(N2C(=O)CC(Cc3ccc(Cl)cc3)C2=O)cc1 (configuration not stated)	-0.13	-0.51
Cc1nc2c(C)cccn2c(=O)c1Cc1nnc(SCC(=O)NC(C)C)n1C	-1.5	-0.96
Cn1cnc(S(=O)(=O)N2CCC(C(=O)Nc3ccc(F)cc3)CC2)c1	1.23	·
CCc1c(CN2CCN(c3ccc(OC)cc3)CC2)csc1C	1.11	·
COc1ccccc1OCCSc1nc(-c2ccc(C)cc2)nc2cc(=O)[nH]n12	0.43	·
O=c1n(S(=O)(=O)c2ccc(F)cc2)c2ccccc2n1S(=O)(=O)c1ccc(F)cc1	·	-3.47
CC1=C(c2ccccc2)S(=O)(=O)NC1=NCCCN1CCC(N2CCCCC2)CC1	1.24	0.85
O=C(Cn1ncn2nc(-c3cccs3)cc2c1=O)NCCCN1CCC(N2CCCCC2)CC1	0.97	2.1
O=C(c1cc2ccccc2o1)N1CCN=C1SCc1cccc(C(F)(F)F)c1	·	-1.01
CCCCNC(=O)c1cnc(N2CCOCC2)nc1	1.19	·
CCN(CCCNc1ncnc2onc(-c3ccc(Cl)cc3)c12)Cc1ccccc1	-0.42	-1.39
CCCC1=NNC(=O)C1Cc1c(F)cccc1Cl (configuration not stated)	·	-0.79

Further records.
structure	TAR Tat displ	CDC25B CDK2 inh
CSc1cccc(N2Cc3ccncc3C2=O)c1	1.12	·
O=S(=O)(c1cccc2cccnc12)N1C=CC(C(F)(F)F)=NCC1	·	-1.14
CC1(C)CC(=O)c2c(oc3ccc(NS(=O)(=O)c4cc([N+](=O)[O-])ccc4Cl)cc23)C1	·	-2.5
COC(=O)c1ccc(COc2ccc3c(-c4ccccc4)cc(=O)oc3c2)cc1	·	-2.43
Fc1ccc(Nc2ncc3c(n2)CCNC3)c(F)c1	-1.86	-1.43
Fc1cccc(CSc2nc3cccnc3n2Cc2ccccc2)c1	-0.96	·
COc1ccc(Cn2nnc3c(=O)[nH]c(C4CCN(S(=O)(=O)c5ccccc5)CC4)nc32)cc1	1.78	-4.58
O=C(CSc1ccsc1[N+](=O)[O-])Nc1ccc(Cl)cc1	2.14	·
Cc1ccc(-n2ncc3c(N(C)C)ncnc32)cc1	2.08	·
O=c1c2oc3ccccc3c2n(Cc2ccccc2F)c(=O)n1Cc1ccco1	0.88	·
CC1(O)CC(c2ccccc2)SC(c2ccccc2)C1 (configuration not stated)	2.25	0.15
Clc1ccc(-n2ncc3c(NCc4cccs4)ncnc32)cc1	-0.03	·

Next structures.
structure	TAR Tat displ	CDC25B CDK2 inh
CC1CN(S(=O)(=O)c2cccc(-c3cn4cc(Cl)ccc4n3)c2)CC(C)O1 (configuration not stated)	1.02	0.35
Cc1cc(C(=O)NC2CCCC2)on1	-0.74	-0.8
CN1C(=O)C2CCCCN2c2ccc(C(=O)N3CCc4ccccc4C3)cc21 (configuration not stated)	0.74	·
COc1ccc(S(=O)(=O)c2cnc3cc(Cl)ccc3c2OC)cc1OC	-0.71	-0.57
Cc1cc(C)c2c(-n3cccc3)c(C(=O)N3CCC(C)CC3)sc2n1	-0.91	-1.37
O=C(CN1C(=O)CSc2ccc(S(=O)(=O)N3CCOCC3)cc21)NCc1ccco1	0.03	·
Cc1ccc(Cl)cc1NCN1C(=O)CNC1=S	·	-0.71
CCc1ccc(S(=O)(=O)c2nnn3c2nc(N2CCN(CC)CC2)c2sccc23)cc1	0.06	·
CCc1ccc(S(=O)(=O)c2cn(C)c3cc(N4CCN(C)CC4)c(F)cc3c2=O)cc1	0.38	·
Fc1ccc(-c2noc3ncnc(N4CC=C(c5ccccc5)CC4)c23)cc1	-0.67	·
CCn1cc(S(=O)(=O)c2ccc(C)cc2)c(=O)c2cc(F)ccc21	0.99	-0.79
O=S1(=O)N=C(SCc2ccc(F)cc2Cl)Nc2ccccc21	0.08	·

As entered above.
TAR Tat displ, Cc1ccc(-n2ncc3c(N(C)C)ncnc32)cc1 : 2.08
TAR Tat displ, CN(C1CCCCC1)S(=O)(=O)N1CCCC(C(=O)N2CCN(c3ccccc3F)CC2)C1 (configuration not stated) : 1.56

More structures:
structure	TAR Tat displ	CDC25B CDK2 inh
O=C1CC(c2ccc(F)cc2F)c2c(nc(SCc3cccc(Cl)c3)[nH]c2=O)N1 (configuration not stated)	0.73	0.35
COc1ccccc1C1C2=C(CC(C)(C)CC2=O)Nc2nc(SCc3ccccn3)[nH]c(=O)c21 (configuration not stated)	0.33	-0.29
Cc1noc(C)c1C(=O)Nc1ccc2c(c1)C(=O)OC2	·	-1.25
NS(=O)(=O)c1ccc(-n2ncc3ccccc3c2=O)cc1	·	-0.65
CCOC(=O)C1=C(C)Nc2nc3ccccc3n2C1c1cccc(F)c1 (configuration not stated)	·	-0.66
CC(=O)c1ccc(-n2c(C)c(C(C)=O)c3cc(O)ccc32)cc1	·	-1.17
COc1ccc(OC2CCN(S(=O)(=O)c3ccc(-n4cnnn4)cc3)CC2)cc1	-1.06	-0.9
COC(=O)c1c(C)oc2ccc(NS(=O)(=O)c3cccc4cccnc34)cc12	0.07	2.03
O=C(O)COCC(=O)Nc1nnc(C2CC2)s1	·	-1.57
COc1cc2c(cc1OC)C1C(C(=O)Nc3ccc(F)c(Cl)c3)c3ccccc3C(=O)N1CC2 (configuration not stated)	·	-2.69
O=C(CCCn1c(=O)c2sccc2n(Cc2cc(=O)n3ccccc3n2)c1=O)NCc1ccco1	0.44	-0.41
Nc1nc(-c2ccccc2)nn1C(=O)c1ccccc1	1.44	0.07

New compounds follow
structure	TAR Tat displ	CDC25B CDK2 inh
COc1ccc(NS(=O)(=O)c2ccc(-c3ccc(=O)[nH]n3)o2)c(OC)c1	0.97	·
COC(=O)c1c([N+](=O)[O-])c(C)nn1C	·	0.51
CC(C)(C)n1nc2c(c1NC(=O)c1ccc(Cl)cc1)CS(=O)(=O)C2	2.38	·
O=C(CSc1nc2c(c(=O)n1-c1ccccc1)SCC2)N1CCCc2ccccc21	·	-0.95
CCOC(=O)[C@H](CCc1ccccc1)N[C@@H](C)C(=O)N1CCCC1C(=O)O (some centres not stated)	-0.11	·
Cc1ccc(Nc2nc3ccccc3n3c(N)nnc23)cc1	0.2	-1.14
Cn1c(=O)oc2cc(NS(=O)(=O)c3ccc4c(c3)n(C)c(=O)n4C)ccc21	-0.46	·
CC(C)C(=O)N(Cc1ccco1)C1CCS(=O)(=O)C1 (configuration not stated)	2.1	-0.78
Cc1cc(/C=C2/SC(=S)NC2=O)c(C)n1-c1cc(C(=O)O)cc(C(=O)O)c1	·	1.17
CCOC(=O)C1=C(C)N(c2ccc(C)cc2)C(=O)C1	·	-0.24
C=CCOc1ccc(C2C(C#N)=C(N)Oc3c2ccc2ccccc32)cc1OC (configuration not stated)	-3.33	-1.1
Clc1ccc(Nc2nc(N3CCOCC3)c3ccccc3n2)cc1	1.02	-0.21

Next part
structure	TAR Tat displ	CDC25B CDK2 inh
COc1ccc(N(C)C(=O)c2cc(S(=O)(=O)N3CCCC3)cn2C)c(OC)c1	1.47	·
COC(=S)Nc1cccc(C(F)(F)F)c1	·	-1.75
CCCc1nnc(N2C(=O)c3oc4ccc(F)cc4c(=O)c3C2c2ccc(OC)c(OC)c2)s1 (configuration not stated)	0.33	-0.94
Cc1cc(C)nc(Nc2n[nH]c(-c3ccncc3)n2)n1	-0.49	1.29
COc1ccc(-c2cc(-c3ccc(C)cc3)[nH]c(=S)c2C#N)cc1	0.8	1.01
COC(=O)c1cnc(N2CCC(N3CCCCC3)CC2)c2ccccc12	0.75	·
Nc1nnc(SCC(=O)N2c3ccccc3Sc3ccccc32)s1	·	0.52
O=C(C1CCN(c2nn3c(=O)c4c(nc3s2)CCCC4)CC1)N1CCCCC1	-0.14	·
CSc1nc(NCc2ccccc2)c(C#N)c(-c2ccccc2)n1	-1.76	-2.98
Cc1ccc2c(c1)CC(C)N2S(=O)(=O)c1nnc(NC(=O)CC(C)C)s1 (configuration not stated)	2.07	-0.26
O=C(O)c1nc2ccccc2[nH]c1=O	0.51	-1.08
O=C(NNc1ccc(C(F)(F)F)cn1)c1ccccc1Cl	·	-0.78

Next entries follow.
structure	TAR Tat displ	CDC25B CDK2 inh
CC(CCc1ccccc1)Nc1ncnc2onc(-c3ccc(F)cc3)c12 (configuration not stated)	-0.98	·
Cc1nc(Nc2nc(=O)c3ccccc3n2C)nc2c(C)cccc12	-1.73	-0.77
Cc1ccc(-c2c3c(=O)n(C)c(=O)n(C)c3cn2-c2ccccc2O)cc1	·	-2.11
Cc1ccc(C(CNC(=O)c2cc(-c3cccs3)on2)N(C)C)o1 (configuration not stated)	-0.41	0.97
COc1cc(-c2[nH]nc3c2C(c2c(F)cccc2Cl)C(C#N)=C(N)O3)cc(OC)c1OC (configuration not stated)	·	-2.67
CCN1c2ccccc2-c2nc(SCC(=O)Nc3ccccc3F)ncc2S1(=O)=O	-0.09	·
COc1ccc(C(=O)OCc2cc(=O)n3nc(C(C)C)sc3n2)cc1	16.5	·
Cc1nn(CCCC(=O)NCCCN2CCOCC2)c(=O)c2cc3occc3n12	1.7	-1.27
O=C(Oc1ccccc1)Oc1ccc2sc(=O)oc2c1	1.14	-2.09
COc1ccc(OC)c(-c2nc3c(C#N)c[nH]n3c2NC2CCC(C)CC2)c1 (configuration not stated)	0.17	-0.66
CCOC(=O)Cc1csc(NC(NC(=O)OCC)(C(F)(F)F)C(F)(F)F)n1	·	-1.72
COc1ccc(NC(=O)NC2COc3ccccc3C2)cc1OC (configuration not stated)	1.02	·

The list continues.
structure	TAR Tat displ	CDC25B CDK2 inh
COc1ccc(C(=O)c2c(N)c(-c3nc(-c4cc(OC)ccc4OC)cs3)c3ccccn23)cc1	-0.15	-0.04
COc1ccc(-c2nc(SCc3cc(=O)c4cc(C)ccc4[nH]3)n[nH]2)cc1	0.6	·
COc1cccc(-c2nn(Cc3nc(-c4ccc(OC(C)C)cc4)oc3C)c(=O)c3noc(C)c23)c1	-0.56	·
O=C(Cn1nc2c(cc1=O)CCCC2)Nc1cc(F)ccc1F	0.48	-1.28
O=C1CCc2cc(S(=O)(=O)N3CCCC3C(=O)O)ccc2N1 (configuration not stated)	·	-1.11
CCCNc1c(NC2CCN(C(=O)OCC)CC2)c(=O)c1=O	-1.09	-0.12
c1ccc(OCCSc2nc3ncccc3[nH]2)cc1	-1.23	·
Cc1ccc(-c2csc3c2ncn2c(=O)n(CC(=O)Nc4ccc(C)c(C)c4)nc32)cc1	0.8	·
CN1C(=O)C[C@H](C(=O)O)C1c1cccnc1 (some centres not stated)	1.8	·
O=C1NC(=S)/C(=C/c2ccccc2O)S1	-0.29	-1.81
O=C(CC1SCCNC1=O)Nc1ccc(F)c(Cl)c1 (configuration not stated)	0.17	-1.94
COc1ccc(-c2cc(C(F)(F)F)n3ncc(C(=O)N(C)CCO)c3n2)cc1OC	0.34	-0.65

Next compounds follow.
structure	TAR Tat displ	CDC25B CDK2 inh
O=C(CSc1nnc(-c2cc3ccccc3o2)n1-c1ccccc1)Nc1ccc2[nH]c(=O)[nH]c2c1	1.46	·
COc1cccc(C2OC(c3snnc3C)=NN2C(C)=O)c1OC(C)=O (configuration not stated)	1.41	·
CCc1c(C)nc2ncnn2c1N1CCN(c2cccc(C)c2)C(C)C1 (configuration not stated)	1.07	·
CCC(=O)N1CCc2cc(S(=O)(=O)NC(C(=O)NCC3CCCO3)C(C)C)ccc21 (configuration not stated)	·	-1.86
CN1CCN(C(CNS(=O)(=O)c2ccc(Cl)cc2)c2ccc(N(C)C)cc2)CC1 (configuration not stated)	1.73	·
COc1cc(NC(=O)N2CCCn3nc(C)cc32)cc(OC)c1	1.65	·
COCCNS(=O)(=O)c1cc2c3c(c1)C(C)C(=O)N3CCC2 (configuration not stated)	0.14	·

One compound at a time (already shown). Screens in order: TAR Tat displ | CDC25B CDK2 inh
`CC1(C)CC(=O)c2c(oc3ccc(NS(=O)(=O)c4cc([N+](=O)[O-])ccc4Cl)cc23)C1` as listed: · | -2.5
`Cc1ccc(Cl)cc1NCN1C(=O)CNC1=S` as listed: · | -0.71
`CCc1c(C)nc2ncnn2c1N1CCN(c2cccc(C)c2)C(C)C1` (configuration not stated) as listed: 1.07 | ·
`Fc1ccc(-c2noc3ncnc(N4CC=C(c5ccccc5)CC4)c23)cc1` as listed: -0.67 | ·
`c1ccc(OCCSc2nc3ncccc3[nH]2)cc1` as listed: -1.23 | ·
